FGF22 binding: binders of human FGF22 protein, primary screen, FGF22 synaptogenesis inhibitor project, biophysical, thermal shift, single point; Fibroblast growth factor 22 (Homo sapiens), Q9HCT0; recombinant FGF22 thermal shift, SYPRO orange fluorescence; percent of sucrose octasulfate shift, DMSO zero; calls only at 9.99 µM; 340,000 compounds, 1.5% hits; AID 651658, 2012;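 active = melting point raised past a set limit in the mean and every replicate; three in four hits are not shown here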
Beta2AR agonist: beta2AR agonists driving receptor internalization, primary screen, cell-based, FAP fluorogen, flow cytometry. Beta-2 adrenergic receptor (Homo sapiens), P07550. Am2.2-beta2AR cells; reference of the scale not given here. response, % (test concentration not listed). 340,000 compounds, 0.43% hits;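 active = response above a set limit, near 3 SD of response in nonfluorescent compounds, cut at about 42% in these data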;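 also: stock transfer was 100 nL into about 11 µL; a reference agonist was the positive control; negative values mostly stem from fluorescent compounds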
UCH37 inh: inhibitors of human UCH37 deubiquitinase, primary screen, biochemical, Ub-AMC cleavage, fluorescence; Ubiquitin carboxyl-terminal hydrolase isozyme L5 (Homo sapiens), Q9Y5K5; purified proteasome/UCH37; inhibition, % (no concentration beside the values); 330,000 compounds, 0.33% hits;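 active = mean of two replicates above 20%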;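 also: 0% = compound-free wells with enzyme and 100% = wells lacking proteasome; stock transfer was 100 nL into about 20 µL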
Target sequence (Q9Y5K5 whole entry, looked up): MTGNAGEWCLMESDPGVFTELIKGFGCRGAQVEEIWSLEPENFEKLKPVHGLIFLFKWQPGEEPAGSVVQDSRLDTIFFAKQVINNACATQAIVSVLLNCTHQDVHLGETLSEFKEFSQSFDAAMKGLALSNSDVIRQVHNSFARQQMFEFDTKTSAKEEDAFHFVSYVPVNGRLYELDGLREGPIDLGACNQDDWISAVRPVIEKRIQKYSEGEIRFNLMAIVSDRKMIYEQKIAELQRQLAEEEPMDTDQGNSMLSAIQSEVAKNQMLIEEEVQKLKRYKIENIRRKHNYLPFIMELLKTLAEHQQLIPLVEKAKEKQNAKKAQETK
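assay system = human UCH37 enzyme supplied as purified proteasome complex | amount = proteasome at 0.15 nM in the dispensed enzyme solution | schedule = 30 min compound-proteasome preincubation then 25 min substrate reaction, room temperature | measured by = fluorescence, ex 355 nm, em 460 nm | benchmarks = no-proteasome wells (full inhibition) and compound-free wells (no inhibition)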
E coli growth: E. coli growth inhibition, primary screen, OD600 | Escherichia coli growth, 23 h; stronger effect = lower value | OD600 absorbance (test concentration not listed) | AID 1053175, 2014 | 330,000 compounds, 0.21% hits;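 active = OD600 absorbance below the run mean of sample wells minus 3.6 SD, in any replicate, cut at about 0.56 in these data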;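 also: stock transfer was 300 nL into about 60 µL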
HNF4A DNA FP: change in binding of human HNF4A to DNA, primary screen, biochemical, fluorescence polarization, FITC-DNA. activity change, % at 10 µM. 1 h. 360,000 compounds, 0.3% hits. Hepatocyte nuclear factor 4-alpha (Homo sapiens), P41235; in the data active = activity change above about 30%, passing the limit was not always enough;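 also: controls were the assay level and a saturating level of protein; the project sought stronger binding though the title names inhibitors; some compounds called inactive have numbers as strong as hits; positive values seem to mean higher polarization but the record does not say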
Target sequence (P41235 whole entry, looked up): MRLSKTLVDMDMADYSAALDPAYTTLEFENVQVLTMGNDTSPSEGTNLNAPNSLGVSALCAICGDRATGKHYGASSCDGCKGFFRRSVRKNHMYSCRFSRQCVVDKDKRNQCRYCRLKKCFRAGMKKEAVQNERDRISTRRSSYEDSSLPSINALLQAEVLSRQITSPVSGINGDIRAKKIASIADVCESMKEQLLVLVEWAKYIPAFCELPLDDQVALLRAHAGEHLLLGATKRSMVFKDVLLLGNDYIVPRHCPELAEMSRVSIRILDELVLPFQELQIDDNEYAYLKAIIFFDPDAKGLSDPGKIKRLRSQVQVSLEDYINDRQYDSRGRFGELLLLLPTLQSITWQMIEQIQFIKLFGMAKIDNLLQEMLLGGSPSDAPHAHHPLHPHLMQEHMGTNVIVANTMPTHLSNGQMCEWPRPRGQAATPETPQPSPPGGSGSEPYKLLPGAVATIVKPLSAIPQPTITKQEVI
ALR H2O2 inh: inhibitors of human ALR sulfhydryl oxidase, primary screen, biochemical, H2O2 detection, HRP-luminol luminescence, single point; FAD-linked sulfhydryl oxidase ALR (Homo sapiens), P55789; purified ALR, DTT oxidation; inhibition, % (test concentration not listed); 290,000 compounds, 3.8% hits;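 active = mean and each replicate at 75% or more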;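 also: stock transfer was 7.5 nL into about 7.5 µL; 0% = neutral wells and 100% = wells with inactivated enzyme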
Target sequence (P55789 whole entry, looked up): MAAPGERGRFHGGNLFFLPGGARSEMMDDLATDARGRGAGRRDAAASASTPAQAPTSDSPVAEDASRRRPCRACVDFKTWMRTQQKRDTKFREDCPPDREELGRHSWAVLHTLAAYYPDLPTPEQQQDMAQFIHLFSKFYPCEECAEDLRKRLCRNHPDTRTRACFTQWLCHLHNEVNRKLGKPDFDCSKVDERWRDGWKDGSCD
LANA-H2B inh: blockers of LANA interaction with H2A/H2B – biochemical, FP readout, HTS, primary screen | AID 2629, 2010 | inhibition, % (concentration not given with the values) | 320,000 compounds, 0.6% hits | Protein LANA1 (Human herpesvirus 8 type P (isolate GK18)), Q9QR71 | cell-free LANA-H2A/H2B peptide, fluorescence polarization; in the data active = inhibition mostly above about 10%, no sharp cut-off; inactive = mostly below about 6.7%;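 also: stock transfer was 7.5 nL into about 10 µL; 0% = median of vehicle wells and 100% = median of positive control wells; one replicate is shown; the record names a cut of 25% in any replicate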
An asterisk follows results filed as active; i = inactive; . = not tested or not shown.

SMILES	FGF22 binding	Beta2AR agonist	UCH37 inh	E coli growth	HNF4A DNA FP	ALR H2O2 inh	LANA-H2B inh
CC(=O)c1cccc(NC(=O)CN(C)S(=O)(=O)c2ccc3c(c2)CC(C)N3C(C)=O)c1 (stereo unspecified)	i	-1	4.2	0.72	5.5	5	5.1
CC(C)CC(=O)c1c(O)c(C=O)c(O)c2c1O[C@@]1(C)[C@@H](C2)C[C@H]2C[C@@H]1C2(C)C	i	13	.	.	6.8	-3	-4.1
CCOC(=O)N1CCC(c2nc(C)sc2C(=O)O)CC1	.	3	-0.9	0.64	3.7	0	6.1
CN(Cc1ccccc1)c1ccc(N2C(=O)CCC2=O)cc1[N+](=O)[O-]	i	-1	4.1	0.7	0.8	.	3.7
Cc1ccc(CCC(=O)Nc2ncc(Cc3cccc(Cl)c3Cl)s2)o1	i	16	0.9	0.67	1.4	42	6.6
CCC(C(=O)OCC(=O)Nc1ccc(C(=O)Nc2ccc(OC)cc2)cc1)c1ccccc1 (stereo unspecified)	i	1	2.9	0.73	7.7	.	-6.0
c1ccc(COc2ncnc3c2ncn3CCCNCc2ccccn2)cc1	i	-8	.	.	-2.1	.	.
CCOc1cc(/C=N/Nc2nc(C)cc(=O)[nH]2)ccc1O	i	-2	.	.	3.0	96*	3.3
O=C(CNc1cc(S(=O)(=O)N2CCCC2)ccc1OCC(F)(F)F)Nc1cc(Cl)cc(Cl)c1	.	.	3.1	0.69	.	-2	-7.5
OCCC1CN(Cc2cccc3c2OCO3)CCN1C1CCCC1 (stereo unspecified)	i	-2	2.3	0.72	2.0	-4	-2.0
CCCCN(CC)C(=O)Cn1cnc2ccc(S(=O)(=O)N3CCC(C)CC3)cc2c1=O	.	-5	1.6	0.65	-1.6	-5	1.6
CCN(Cc1ccccc1)C(=O)c1ccccc1C	.	-4	2.4	0.71	1.5	-5	-0.2
O=C(CNC(=O)c1ccc(Cl)cc1Cl)OCc1ccccc1	i	-2	-2.1	0.64	-1.0	-56	6.2
Cc1cccc(N=C(NO)c2nonc2N)c1	i	3	4.9	0.67	1.0	89*	1.0
O=C(Nc1nnc(-c2cccs2)o1)c1ccco1	i	4	10	0.72	-2.2	16	1.3

For convenience, 2 of the compounds above:
SMILES	FGF22 binding	Beta2AR agonist	UCH37 inh	E coli growth	HNF4A DNA FP	ALR H2O2 inh	LANA-H2B inh
Cc1cccc(N=C(NO)c2nonc2N)c1	i	3	4.9	0.67	1.0	89*	1.0
O=C(Nc1nnc(-c2cccs2)o1)c1ccco1	i	4	10	0.72	-2.2	16	1.3

Exported with bars between the fields: entries from further up.
SMILES | FGF22 binding | Beta2AR agonist | UCH37 inh | E coli growth | HNF4A DNA FP | ALR H2O2 inh | LANA-H2B inh
Cc1cccc(N=C(NO)c2nonc2N)c1 | i | 3 | 4.9 | 0.67 | 1.0 | 89* | 1.0
CC(C)CC(=O)c1c(O)c(C=O)c(O)c2c1O[C@@]1(C)[C@@H](C2)C[C@H]2C[C@@H]1C2(C)C | i | 13 | . | . | 6.8 | -3 | -4.1
CCOC(=O)N1CCC(c2nc(C)sc2C(=O)O)CC1 | . | 3 | -0.9 | 0.64 | 3.7 | 0 | 6.1
CCC(C(=O)OCC(=O)Nc1ccc(C(=O)Nc2ccc(OC)cc2)cc1)c1ccccc1 (stereo unspecified) | i | 1 | 2.9 | 0.73 | 7.7 | . | -6.0
Cc1ccc(CCC(=O)Nc2ncc(Cc3cccc(Cl)c3Cl)s2)o1 | i | 16 | 0.9 | 0.67 | 1.4 | 42 | 6.6

(list continues)
SMILES	FGF22 binding	Beta2AR agonist	UCH37 inh	E coli growth	HNF4A DNA FP	ALR H2O2 inh	LANA-H2B inh
Cc1ccc(S(=O)(=O)NCC(=O)N(CC(=O)NC(C)(C)C)Cc2cccs2)cc1	.	4	3.9	0.69	1.9	-3	4.7
O=C(Nc1ccc(F)cc1F)N1CCCN(CCOc2ccccc2)CC1	i	-4	2.8	0.66	3.6	.	11
CCC(C)c1ccc(S(=O)(=O)N2CCN(C(C)C(=O)NC3CCCC3)CC2)cc1 (stereo unspecified)	i	-7	1.4	0.63	-3.6	.	1.1
Cc1ccccc1C(=O)Nc1ccc(Br)cn1	.	-1	3.3	0.71	0.8	-2	-5.3
Cc1c(C(=O)N(CCC#N)c2ccccc2)sc2nc3n(c(=O)c12)CCCC3	i	-20	5.2	0.71	-2.5	1	1.7
Cc1ccc(C(=O)CS(C)(=O)=O)cc1	.	8	-1.7	0.69	-0.7	-6	-3.1
COc1cccc(COC(=O)c2ccc(S(=O)(=O)N3CCC(C)CC3)cc2)c1OC	i	2	4.7	0.68	4.4	-3	1.8
Cc1cc2c(cc1C)C(=O)NC(C)(C)C2	.	1	-0.1	0.69	3.1	-15	4.3
CC1CCC(CN2CCN=C2Nc2ccccc2)CC1 (stereo unspecified)	i	-2	-0.4	0.68	1.8	7	-3.3
COc1ccc(-n2c(C)cc(C(=O)CN3C(=O)c4ccccc4C3=O)c2C)cc1	.	15	-1.1	0.66	-1.1	-19	-5.4
CCOC(=O)N1CCN(C(=O)Cn2nc(C)n3nc(-c4ccc(CC)cc4)cc3c2=O)CC1	i	1	5.3	0.72	0.8	-1	1.5
CC(=O)NC1CC2CCCC(C1)N2CC(=O)N1CCCc2ccccc21 (stereo unspecified)	.	-6	1.7	0.71	-2.9	.	-2.0
CCCN(CCC)C(=O)C1CCCN1S(=O)(=O)c1cccc2nsnc12 (stereo unspecified)	i	-1	2.0	0.69	-2.2	-3	1.2
OCC(O)CN1CCCC1 (stereo unspecified)	i	9	0.6	0.7	-0.8	-8	2.5
COc1cccc(C(=O)NN=C2CCCC2)c1	i	-1	5.1	0.68	2.3	6	3.5
Cc1ccccc1-c1n[nH]c(=S)o1	.	-1	0.3	0.68	-0.2	15	-2.7
O=C1CN(c2nc(-c3cccs3)nc3sc4c(c23)CCCC4)CCN1	i	-22	-46	0.68	3.0	27	0.0
CNC(=S)N/N=C/c1c(C)nn(-c2cccc(Cl)c2)c1Cl	i	3	.	.	1.3	-7	2.1
Cc1noc(/C=C/N(C)C)c1S(=O)(=O)N1CCC(C(=O)O)CC1	i	9	18	0.71	1.3	67	0.3
CN(Cc1ccccc1)C(=O)COC(=O)c1ccc(=O)n(Cc2ccccc2)n1	i	3	3.5	0.7	1.3	.	2.4
COC(=O)c1ccc2ccn(CC(=O)NC(C)C)c2c1	.	-2	-182	0.7	1.7	0	-2.6
O=S(=O)(NCCc1ccccc1)c1cnc(Cl)c(Br)c1	i	-1	2.9	0.7	2.0	.	.
Cc1ccc(NCc2nc3ccccc3n2CCOc2ccccc2)cc1	i	7	2.8	0.65	4.3	16	-4.0
Cc1ccc(S(=O)(=O)NNC(=O)C(O)(c2ccccc2C)c2ccccc2C)cc1	i	-4	3.1	0.67	0.6	1	-0.4
CNC(=O)c1ccc(NC(=O)CCc2c(C)noc2C)cc1	i	1	0.3	0.69	-3.3	-1	.
CC1=Nc2ccccc2/C1=C/c1c(C)[nH]c2ccccc12	.	-6	-59	0.71	4.3	.	.
O=C(OCC(=O)N1CCCc2ccccc21)c1ccccc1NCCO	i	0	-366	0.69	-1.1	12	4.1
O=C(CN(Cc1ccco1)C(=O)Cn1nnc(-c2cccs2)n1)NCC1CCCO1 (stereo unspecified)	i	-6	1.1	0.69	-0.5	.	5.3
CCCCCOc1ccc(C(=O)NCC(=O)NCC(=O)OCC)cc1	.	-8	1.2	0.79	0.5	-5	0.4
Cc1cc(NC(=O)CSc2nccn2-c2ccc(F)cc2)no1	.	-7	2.6	0.78	-0.3	-18	0.6
CC1CCN(C(=O)COC(=O)C(C)N2C(=O)c3ccccc3C2=O)CC1 (stereo unspecified)	i	-3	1.2	0.67	-1.9	-7	-1.0
COc1cccc(CNCC2CCCO2)c1 (stereo unspecified)	i	-4	1.0	0.68	2.1	.	2.0
C#CC[N+]1(CC#Cc2ccccc2)CCCC1	.	-5	1.2	0.71	2.5	-9	23
Cc1ccc(CNC(=O)CN2CCN(c3ccc(F)cc3)CC2)cc1	i	4	1.3	0.69	0.3	17	2.6
O=C(CNC(=O)c1ccccc1F)OCC(=O)N1CCCc2ccccc21	.	1	0.6	0.66	0.7	-1	6.2
OCCNc1nc2ccc(Cl)cc2[nH]1	.	2	-1.8	0.64	2.7	-5	1.0
COc1ccc(N2CCN(c3ccc(C(=O)O)cc3[N+](=O)[O-])CC2)cc1	i	-1	3.0	0.68	-0.8	79*	-0.8
C=CCN(CC=C)Cc1cc(=O)n2c(-c3ccccc3)csc2n1	i	-4	0.6	0.72	2.8	9	2.3
COC(=O)c1ccc(CN2CCCC(CO)(Cc3ccc(F)cc3F)C2)cc1 (stereo unspecified)	i	0	0.4	0.7	3.0	.	-2.4
Cc1ccc(-c2nc(COC(=O)c3c(C)noc3C)cs2)cc1	.	12	3.2	0.72	2.5	-1	3.5
CC1(C)Cc2c(C#N)c(SCCOc3ccccc3)nc(N3CCOCC3)c2CO1	.	7	0.0	0.73	-0.2	-19	4.5
Oc1oc(-c2ccccc2)nc1/C=N/c1ccccn1	i	-5	.	.	-0.1	27	0.9
Cc1cnn(C(=S)NCC2CCCO2)c1 (stereo unspecified)	.	9	2.8	0.65	2.7	-18	0.2
Cc1csc(SCC(=O)NC(C)C2CC3CCC2C3)n1 (stereo unspecified)	i	9	1.4	0.7	-0.6	-9	-1.5
Cn1c(=O)[nH]c(=O)c2c1nc1n2CCCS1	.	-3	1.9	0.76	3.2	-2	1.1
COc1cccc(/C=C/C(=O)OCC(=O)NCC2CCCO2)c1OC (stereo unspecified)	.	2	5.8	0.69	-2.2	2	1.8
O=C(NCCc1ccc(Cl)cc1)C1CCN(S(=O)(=O)c2cccc3nonc23)CC1	.	17	0.5	0.76	1.4	.	-0.7
Cc1cc(C(F)(F)F)nc(CCNCc2c(C(=O)N3CCCC3)nc3ccccn23)n1	i	-7	-1.4	0.65	2.7	-2	-1.0
Cc1ccc(F)cc1NC(=O)CN1C(=O)NC2(CCCc3ccccc32)C1=O (stereo unspecified)	i	8	4.0	0.7	-0.5	1	-0.8
CCOC(=O)c1c(C)[nH]c(C(=O)CN2CCN(CC)CC2)c1C	i	0	5.1	0.67	-0.8	.	3.2
COCCNC(=O)/C(C#N)=C/c1ccc(SC)cc1	i	4	2.1	0.71	2.5	28	6.1
Cc1nnc(Sc2nc3c(c(=O)n(C)c(=O)n3C)n2Cc2ccccc2Cl)s1	.	-5	0.9	0.68	-3.1	-12	-2.2
N#Cc1ccc(N2CCOCC2)nc1	i	0	1.1	0.66	-1.2	-1	-1.9
CSc1nc(Oc2cccc(C(F)(F)F)c2)cc(C(F)(F)F)n1	.	2	2.5	0.73	-2.6	-5	-3.7
COc1ccc(-n2c(C)c(C)c3c(NCCCN(C)C)ncnc32)cc1	i	1	3.2	0.72	-1.0	-7	5.6
CC(C)(C)C1CCC(=NNC(=O)c2cc(-c3ccccc3)n[nH]2)CC1 (stereo unspecified)	i	-3	3.1	0.7	2.3	-1	-0.8
Cc1ccc(NCc2cccc(B(O)O)c2)cc1	i	3	.	.	2.9	.	.
CCN(CC(=O)NCc1ccc(F)cc1)C(=O)CN1CCN(c2cc(Cl)ccc2C)CC1	i	-5	3.8	0.67	1.8	2	2.3
Cc1cc(C)cc(C(=O)NC(CC(N)=O)c2ccc(N3CCC(N4CCCCC4)CC3)c([N+](=O)[O-])c2)c1 (stereo unspecified)	i	5	.	.	0.1	1	-1.9
O=C(Nc1ccccc1N1CCOCC1)c1cccc([N+](=O)[O-])c1	.	-8	5.7	0.77	0.0	.	-1.4

Some of the compounds tested (hit frequency here may not be typical).
